# Screening data as filed in PubChem BioAssay.
# MITF inh: MITF inhibition; TRPM1 promoter luciferase, luminescence, 24 h; inhibition, % (test concentration not listed); hit rate 0.28% among 37,000;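 active = most replicates at 85% or more, or half of them and the mean; inconclusive = half reach 85% but not the mean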;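 also: human melanocyte line stably carrying TRPM1 promoter luciferase reporter; 0% = vehicle wells and 100% = a positive control; the first replicate is given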
# PD-1 reversal: reversal of PD-1 mediated T-cell inhibition | primary human CD4 T cells, PD-L1 beads, CellTiter-Glo 96 h | 29,000 tested, under 10 active | activation, % (no concentration beside the values);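 active = replicate mean of 50% or more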;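 also: 0% = median vehicle wells and 100% = positive control; 100 nL library stock added to about 50 µL; numbers are from one replicate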
# YB-1 expr inh: YB-1 expression inhibition. U2OS, qRT-PCR YB-1 vs CDIP delta delta Cp, 16 h; active compounds read high; zero = DMSO, each unit about twofold. delta delta Cp (YB-1 minus CDIP) (test concentration not listed). hit rate 0.37% among 30,000;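 active = delta delta Cp rounded down to an integer at or above 3, about 3 SD of DMSO wells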;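 also: higher means less YB-1 transcript or more CDIP transcript relative to DMSO; stock transfer was 100 nL into about 100 µL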
# Hedgehog inh: blocks Sonic Hedgehog signaling | inhibition, % (test concentration not listed) | hit rate 2.1% among 22,000 | Shh-LIGHT2 Gli-luciferase reporter, 30 h;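 active = replicate mean of 65% or more; inconclusive = mean lower but half the replicates past it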;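 also: pathway switched on by Shh-conditioned medium diluted 1 in 25 in low serum; 100 nL library stock added to about 40 µL; 0% = median of neutral wells and 100% = positive control level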
# * = called active by the depositor; ? = inconclusive; . = not tested or not shown. Not all compounds are listed (hit frequency here may not be typical).
# Below each compound: MITF inh, PD-1 reversal, YB-1 expr inh, Hedgehog inh
COc1ccc(NC(=O)N(C)C[C@@H]2Oc3ccc(NS(=O)(=O)c4ccc(Cl)cc4)cc3CC(=O)N([C@@H](C)CO)C[C@@H]2C)cc1
 : 12, ., 0.04, -13
COc1ccc(NC(=O)N(C)C[C@@H]2Oc3ccc(NC(=O)Cc4ccccc4)cc3C(=O)N([C@H](C)CO)C[C@H]2C)cc1
 : 8, 0.3, -0.032, -7
COc1ccc(NC(=O)N(C)C[C@H]2Oc3ccc(NS(=O)(=O)c4c(C)noc4C)cc3C(=O)N([C@H](C)CO)C[C@H]2C)cc1
 : 4, ., 0.33, -10
C[C@H](CO)N1C[C@H](C)[C@@H](CN(C)S(=O)(=O)c2ccccc2)Oc2c(NC(=O)c3ccc(-c4nccs4)cc3)cccc2C1=O
 : 5, -2.3, -0.13, ?
COC(=O)COc1cccc(NC(=O)c2ccc(Br)cc2)c1
 : 13, -2.9, ., .
COc1ccc(S(=O)(=O)N(C)CC(=O)NC2CCCCC2)cc1Cl
 : 9, 1.3, ., .
Cc1ccc(S(=O)(=O)NC(=O)N2CCCN(C(=O)OC(C)(C)C)CC2)cc1
 : -15, 0.2, -0.97, .
COc1cc(OC)c(NC(=O)CSc2nnc(-c3ccncc3)n2-c2ccccc2)cc1Cl
 : -18, -2.0, ., .
COC(=O)c1c(NC(=O)COc2cccc(Cl)c2)sc2c1CCC2
 : -9, -1.3, ., .
C[C@@H]1CN([C@@H](C)CO)C(=O)Cc2cc(NS(=O)(=O)c3cn(C)cn3)ccc2O[C@@H]1CN(C)C(=O)Nc1ccc(C(F)(F)F)cc1
 : -14, 1.4, 0.18, -12
COc1ccc(NC(=O)N(C)C[C@H]2Oc3ccc(NC(=O)CCC(F)(F)F)cc3CC(=O)N([C@@H](C)CO)C[C@@H]2C)cc1
 : -1, -0.1, -0.66, 22
O=C(NCCN1CCOCC1)c1cc2cc(Br)ccc2oc1=O
 : -5, 1.4, ., .
COc1ccc(NC(=O)Nc2ccc3c(c2)C(=O)N([C@@H](C)CO)C[C@H](C)[C@H](CN(C)C(=O)Nc2ccc4c(c2)OCO4)O3)cc1
 : -9, ., 0.1, 2
COc1cc(OC)cc(C(=O)N2CCN=C2c2ccccc2)c1
 : 7, 0.6, -0.22, -4
C[C@H]1CN([C@@H](C)CO)C(=O)c2cccc(NC(=O)Nc3ccc4c(c3)OCO4)c2O[C@H]1CN(C)S(=O)(=O)c1cccs1
 : -32, ., -0.15, -6
O=C1c2c(O)cc(O)cc2OC(c2ccc(O)cc2)C1C1C(=O)c2c(O)cc(O)cc2OC1c1ccc(O)cc1 (stereo unspecified)
 : ., ., 0.58, -42
CO[C@H]1C(=O)c2c(O)c(CC=C(C)C)c(O)c(CC=C(C)C)c2O[C@@H]1c1ccc(O)cc1
 : 10, 0.0, -0.14, 28
Cc1ccc(S(=O)(=O)Nc2ccc3c(c2)CC(=O)N([C@@H](C)CO)C[C@H](C)[C@@H](CN(C)S(=O)(=O)c2ccc(Cl)cc2)O3)cc1
 : 3, -0.4, 0.071, -9
O=C(c1ccccc1)N1CCN(c2ccc([N+](=O)[O-])c(NCc3cccnc3)c2)CC1
 : -5, -1.0, ., .
Cc1ccc(Cl)cc1NC(=O)CC(C(=O)O)N1CCNCC1 (stereo unspecified)
 : -2, 0.7, ., .
C[C@H](CO)N1C[C@H](C)[C@@H](CN(C)C)Oc2ccc(NS(=O)(=O)c3cn(C)cn3)cc2C1=O
 : 10, 4.7, 0.22, .
COc1ccc(NC(=O)Nc2cccc3c2O[C@@H](CN(C)C(=O)Nc2ccc(OC)cc2)[C@H](C)CN([C@@H](C)CO)C3=O)cc1
 : -7, 0.6, 0.12, -5
C[C@@H]1CN([C@@H](C)CO)C(=O)c2cccc(NS(=O)(=O)c3cccs3)c2O[C@H]1CN(C)C(=O)Nc1ccc(F)cc1
 : -4, 1.7, -0.13, -29
COc1ccc(-n2c(SCC(=O)Nc3ccc(C)c(C)c3)nnc2-c2ccccc2)cc1
 : -6, 0.3, ., .
CCOC(=S)SCc1c(C)c(C)c(C)c(C)c1C
 : -4, 0.3, -0.13, -17
CC(C)NC(=O)N(C)C[C@H]1Oc2c(NC(=O)Nc3ccc(F)cc3)cccc2C(=O)N([C@@H](C)CO)C[C@H]1C
 : 4, -5.3, 4.3*, 17
Cc1noc(C)c1NC(=O)Nc1ccc2c(c1)C(=O)N([C@H](C)CO)C[C@H](C)[C@H](CN(C)C(=O)Nc1ccccc1)O2
 : -10, 0.9, -0.028, -18
C[C@@H]1CN([C@H](C)CO)C(=O)c2cccc(NC(=O)Nc3ccc4c(c3)OCO4)c2O[C@H]1CN(C)C(=O)Nc1ccc(C(F)(F)F)cc1
 : 6, ., 0.25, -26
C[C@H](CO)N1C[C@H](C)[C@H](CN(C)C(=O)Nc2ccc3c(c2)OCO3)Oc2ccc(NS(=O)(=O)c3ccc(F)cc3)cc2CC1=O
 : -15, 1.0, 0.035, -3
C[C@@H]1CN([C@@H](C)CO)C(=O)c2cc(NS(=O)(=O)c3ccccc3)ccc2O[C@@H]1CN(C)S(=O)(=O)c1cccs1
 : -12, -2.1, 0.41, 1
C[C@@H]1CN([C@@H](C)CO)C(=O)Cc2cc(NC(=O)NC3CCCCC3)ccc2O[C@@H]1CN(C)CC1CCCCC1
 : 0, 2.6, -0.25, -23
Cc1ccc(S(=O)(=O)Nc2cccc3c2O[C@H](CN(C)C)[C@@H](C)CN([C@H](C)CO)C3=O)cc1
 : 1, 2.2, 0.15, 13
CC(C)(C)c1csc(=Nc2ccc(F)cc2F)o1
 : -68, -0.7, -0.39, .
COc1ccc([N+](=O)[O-])cc1NC(=O)C(CC(C)C)N1C(=O)c2ccccc2C1=O (stereo unspecified)
 : 1, 4.2, ., .
C[C@H](CO)N1C[C@H](C)[C@@H](CN(C)Cc2ccncc2)Oc2c(NC(=O)C3CCCCC3)cccc2C1=O
 : -4, ., -0.35, 39
C[C@@H]1CN([C@H](C)CO)C(=O)Cc2cc(NC(=O)Cn3cnnn3)ccc2O[C@@H]1CN(C)S(=O)(=O)c1ccc(F)cc1
 : 1, ., 0.14, -9
C[C@@H]1CN([C@H](C)CO)C(=O)c2cccc(NC(=O)Nc3ccc(F)cc3)c2O[C@@H]1CN(C)C(=O)Nc1cccc2ccccc12
 : -1, 0.6, 0.067, -126
Cc1cc(C)c2oc(-c3ccc(NC(=O)COc4ccc(Br)cc4)cc3O)nc2c1
 : -27, 0.5, 0.2, -219
COC1CC(OC(O)C(O)C(O)C(O)C(O)CO)c2c(cc3cc(C)oc(=O)c3c2O)OC1=O (stereo unspecified)
 : -5, 1.4, 0.12, -4
Cc1ccc(S(=O)(=O)N(C)C[C@H]2Oc3ccc(NS(=O)(=O)c4cn(C)cn4)cc3CC(=O)N([C@H](C)CO)C[C@H]2C)cc1
 : -6, -0.5, 0.086, -7
C[C@@H]1CN([C@H](C)CO)C(=O)c2cccc(NC(=O)NC3CCCCC3)c2O[C@H]1CN(C)C(=O)Nc1cccc2ccccc12
 : 8, 1.2, 0.44, 6
Nc1ccc(C(=O)N2CCOCC2)cc1
 : 10, -0.7, -0.47, -18
C[C@@H]1CCCCO[C@@H](CN(C)C(=O)Nc2ccc(F)cc2)[C@@H](C)CN([C@H](C)CO)C(=O)c2cc(NC(=O)Nc3ccccc3)ccc2O1
 : -6, -0.5, -0.54, -23
C[C@H]1CN([C@@H](C)CO)C(=O)c2cccc(NC(=O)C3CC3)c2O[C@@H]1CN(C)C
 : -9, 1.1, 0.29, -34
C[C@@H]1CN([C@@H](C)CO)C(=O)c2cc(NC(=O)Nc3ccc(C(F)(F)F)cc3)ccc2O[C@H]1CN(C)Cc1ccccc1
 : -16, -3.5, -0.026, 28
C[C@@H]1CCCCO[C@H](CN(C)S(C)(=O)=O)[C@@H](C)CN([C@H](C)CO)C(=O)c2cc(NS(=O)(=O)c3cn(C)cn3)ccc2O1
 : -13, ., -0.36, .
CS(=O)(=O)N(CC(=O)NC1CCCCC1)c1ccc2c3c(cccc13)CC2
 : -14, 2.0, ., .
O=C(CSCc1nc2ccccc2[nH]1)Nc1cccc(C(F)(F)F)c1
 : 22, 2.9, ., .
N#CCCN(CCC#N)C(=O)c1cccc([N+](=O)[O-])c1
 : -7, 1.6, ., .
COc1ccc(S(=O)(=O)Nc2ccc3c(c2)CC(=O)N([C@H](C)CO)C[C@@H](C)[C@@H](CN(C)Cc2ccc(Cl)c(Cl)c2)O3)cc1
 : -6, -1.4, -0.09, 31
O=C(NCc1ccco1)c1ccc(NC(=O)c2cccs2)cc1
 : -76, 0.8, ., .
CS(=O)(=O)N(CC(=O)Nc1cc(C(F)(F)F)ccc1Cl)c1ccc(I)cc1
 : 6, 0.3, ., .
Clc1ccc(-c2csc3ncnc(NCCN4CCOCC4)c23)cc1
 : -18, -4.7, ., .
COc1ccc(CN(C)C[C@@H]2Oc3c(NC(=O)Nc4ccccc4)cccc3C(=O)N([C@@H](C)CO)C[C@H]2C)cc1
 : 22, ., 0.33, 6
C[C@@H]1CN([C@@H](C)CO)C(=O)c2cc(NC(=O)Nc3ccc4c(c3)OCO4)ccc2O[C@H]1CN(C)C(=O)Nc1ccc2c(c1)OCO2
 : -1, -0.7, 0.054, 36
C[C@H]1CN([C@@H](C)CO)C(=O)c2cc(NC(=O)CCC(F)(F)F)ccc2O[C@@H]1CN(C)S(=O)(=O)c1cn(C)cn1
 : -13, 4.0, -0.46, .
C[C@H](CO)N1C[C@H](C)[C@H](CN(C)S(=O)(=O)c2ccccc2)Oc2ccc(NC(=O)CCN3CCOCC3)cc2C1=O
 : -5, 1.2, -0.45, -6
C[C@H](CO)N1C[C@H](C)[C@H](CN(C)S(=O)(=O)c2ccccc2)Oc2ccc(NC(=O)C3CC3)cc2CC1=O
 : -3, ., -0.31, 3
C[C@@H]1CCCCO[C@@H](CN(C)S(=O)(=O)c2cccs2)[C@@H](C)CN([C@H](C)CO)C(=O)c2cc(NC(=O)c3ccccc3)ccc2O1
 : 8, -5.6, -0.044, -9
C=C(C)C(=O)Nc1ccc(O)c(-c2nc3ccccc3[nH]2)c1
 : -20, -2.1, -0.15, -3

# Retrieved by compound from the entries so far (4):
# Below each compound: MITF inh, PD-1 reversal, YB-1 expr inh, Hedgehog inh
C[C@@H]1CN([C@H](C)CO)C(=O)c2cccc(NC(=O)Nc3ccc(F)cc3)c2O[C@@H]1CN(C)C(=O)Nc1cccc2ccccc12
 : -1, 0.6, 0.067, -126
C[C@@H]1CCCCO[C@@H](CN(C)S(=O)(=O)c2cccs2)[C@@H](C)CN([C@H](C)CO)C(=O)c2cc(NC(=O)c3ccccc3)ccc2O1
 : 8, -5.6, -0.044, -9
O=C(CSCc1nc2ccccc2[nH]1)Nc1cccc(C(F)(F)F)c1
 : 22, 2.9, ., .
C=C(C)C(=O)Nc1ccc(O)c(-c2nc3ccccc3[nH]2)c1
 : -20, -2.1, -0.15, -3

# Additional records follow.
# Below each compound: MITF inh, PD-1 reversal, YB-1 expr inh, Hedgehog inh
O=C(Oc1ccc(C2SCCS2)cc1)c1cccc(C(F)(F)F)c1
 : 6, -1.1, -0.47, ?
Cc1cc(C)c(NC(=O)CN(C2CCCCC2)S(=O)(=O)c2ccc(Br)cc2)c(C)c1
 : 8, 0.9, ., .
COC(=O)C1=CO[C@@H](O[C@@H]2O[C@H](CO)[C@@H](O)[C@H](O)[C@H]2O)/C(=C\CO)[C@@H]1CC(=O)OCCc1ccc(O)cc1
 : 1, 0.5, 0.61, -37
Cc1c(CCC(=O)O)c(=O)oc2cc(OCc3cccc(F)c3)ccc12
 : -53, 2.0, ., .
COc1ccc(NC(=O)Nc2ccc3c(c2)C(=O)N([C@H](C)CO)C[C@H](C)[C@@H](CN(C)S(=O)(=O)c2ccc(F)cc2)OCCCC[C@@H](C)O3)cc1
 : 0, ., 0.094, -16
CC12CC3CC(C)(C1)CC(C(=O)NN)(C3)C2
 : 3, 1.3, 0.053, -7
Cc1noc(C)c1NC(=O)Nc1ccc2c(c1)C(=O)N([C@@H](C)CO)C[C@H](C)[C@@H](CN(C)S(=O)(=O)c1ccc(Cl)cc1)O2
 : 6, 0.9, 0.16, -11
C[C@H]1CN([C@@H](C)CO)C(=O)c2cc(NC(=O)Cn3cnnn3)ccc2O[C@H]1CN(C)S(=O)(=O)c1ccc(F)cc1
 : -5, 0.1, 0.14, .
C#C[C@]1(O)CC[C@H]2[C@@H]3CCc4cc(OC)ccc4[C@H]3CC[C@@]21C
 : 7, 0.3, -0.3, -36
Cc1ccc(-c2csc3nc(SCC(=O)O)n(-c4ccccc4)c(=O)c23)cc1
 : -5, -0.8, ., .
Cc1ccc(S(=O)(=O)Nc2ccc3c(c2)C(=O)N([C@H](C)CO)C[C@H](C)[C@H](CN(C)Cc2ccc(C(=O)Nc4ccccc4N)cc2)O3)cc1
 : 4, -0.3, -0.33, .
O=C(O)/C=C/c1ccc2c(-c3ccccc3)onc2c1
 : -1, 0.3, -0.28, -44
C[C@H]1CN([C@@H](C)CO)C(=O)Cc2cc(NC(=O)Nc3ccc(C(F)(F)F)cc3)ccc2O[C@H]1CN(C)S(C)(=O)=O
 : -9, ., -0.44, .
C[C@@H]1CN([C@@H](C)CO)C(=O)c2cccc(NC(=O)Nc3ccc(C(F)(F)F)cc3)c2O[C@@H]1CN(C)C(=O)Nc1ccc2c(c1)OCO2
 : -5, 0.6, 0.11, -47
COC(=O)CCC(=O)c1cc2cc(Br)ccc2o1
 : -16, 2.0, -0.063, -90
